Screening data: PubChem BioAssay, National Center for Advancing Translational Sciences (NCATS)
Cruzain inh noDet – cruzain (T. cruzi) inhibition without detergent | P25779 | purified cruzain, Z-FR-AMC fluorescence, no detergent | Potency, µM, inactives show max response, negative = inhibition, usual class: inhibitors | 200,000 tested, 2.3% active | AID 1476;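 note: plate controls were enzyme without inhibitor for no effect and buffer without enzyme for full effect; nearly all actives have a fitted effect of over 40% in size; top concentration of the series not given in the record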
Target sequence (P25779 123-467 limits assumed): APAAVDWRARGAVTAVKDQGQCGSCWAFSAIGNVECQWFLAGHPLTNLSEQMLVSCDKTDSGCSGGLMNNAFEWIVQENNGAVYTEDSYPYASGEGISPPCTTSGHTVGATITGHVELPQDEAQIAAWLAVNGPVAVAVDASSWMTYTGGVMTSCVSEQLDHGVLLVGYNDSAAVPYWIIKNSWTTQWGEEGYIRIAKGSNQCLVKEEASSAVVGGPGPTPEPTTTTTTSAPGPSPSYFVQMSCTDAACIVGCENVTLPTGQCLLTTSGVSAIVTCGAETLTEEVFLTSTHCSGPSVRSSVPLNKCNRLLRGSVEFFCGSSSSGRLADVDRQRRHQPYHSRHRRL
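Purified cruzain at 1.5 nM, pre-incubated 15 min with compound at room temperature in 100 mM sodium acetate pH 5.5, 5 mM DTT, 0.00005% Triton X-100. Reaction started with 2 uM Z-FR-AMC; AMC fluorescence increase over 60 s gives rate.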
StopGo reporter – FMDV 2A StopGo reporter, luciferase signal; human cells with a luciferase reporter of 2A StopGo recoding; control for the full effect not named in the record; Potency, µM (highest dose often 57.9 µM), for inactives: at the top dose signal change, negative = less light; 410,000 tested, 1.2% active; AID 1159524; active = well fitted falling curve with a large enough effect; inconclusive = small, poorly fitted or top-dose-only effect; inactive = no such curve, though single readings can be large or run the other way; tested in HEK293T cells; note: % is set by controls: 0 for no effect and ±100 for the full control effect; nearly all actives have a fitted effect of over 45% in size; luciferase light after 4 h
NS1 function inh – blocks influenza NS1 protein function; AID 2326; S. cerevisiae slowed by influenza A NS1, growth recovery by OD600; Potency, µM (top dose mostly 46.1 µM), without a hit: at the highest dose activity, positive = more growth; 270,000 tested, 0.4% active; active means well fitted rising curve with a large enough effect; inconclusive means small, poorly fitted or top-dose-only effect; inactive means no such curve, though single readings can be large or run the other way; note: nearly all actives have a fitted effect of over 50% in size
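In this qHTS, NS1 from influenza A is expressed in budding yeast, where it slows growth. Cells are switched from glucose to 2% galactose medium (pH 6.0, -URA), treated with compound, and growth recovery is read at OD600.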
RE007 growth inh – less growth of the S. pombe RE007 Vpr strain. S. pombe RE007 Vpr strain, BacTiter-Glo ATP luminescence, 24 h; control for the full effect not named in the record. AID 651644. Potency, µM (top dose mostly 92.2 µM), for inactives: top-dose activity change, negative = less growth. 360,000 tested, 0.21% active; active = well fitted falling curve with a large enough effect; inconclusive = small, poorly fitted or top-dose-only effect; inactive = no such curve, though single readings can be large or run the other way;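 note: % is set by controls: 0 for no effect and ±100 for the full control effect; nearly all actives have a fitted effect of over 50% in size; the assay follows cell death caused by Vpr and the record does not say whether a fall means rescue or toxicity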
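Fission yeast strain RE007, carrying one chromosomally integrated HIV-1 vpr copy, was seeded at OD 0.01 in PMG+AL medium with 23 nL pinned compound. After 24 h at 30 °C and 99% humidity, viability was read by BacTiter-Glo luminescence.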
LASV entry inh – inhibitors of Lassa virus binding or cell entry; 300,000 tested, 1.2% active; Potency, µM (titrated, usually from 37.9 µM), inactives show at the highest dose activity change, negative = inhibition, hits mostly inhibitors; Lassa virus pseudotype entry inhibition, cell reporter; control for the full effect not named in the record; active means well fitted inhibition curve with a large enough effect; inconclusive means small, poorly fitted or top-dose-only effect, or effect the other way; inactive means flat fitted curve, though single readings scatter; tested in HEK293 cells; note: % is set by controls: 0 for no effect and ±100 for the full control effect; nearly all actives have a fitted effect of over 50% in size; luciferase read-out
SARS PLP yeast – blocks SARS-CoV papain-like protease in a yeast assay. S. cerevisiae expressing SARS-CoV PLpro, growth rescue; control for the full effect not named in the record. Potency, µM (top dose mostly 32.9 µM), without a hit: top-dose activity, positive = growth rescue. 330,000 tested, 0.19% active. AID 485353; active means well fitted rising curve with a large enough effect; inconclusive means small, poorly fitted or top-dose-only effect; inactive means no such curve, though single readings can be large or run the other way; note: 0% is about no effect; nearly all actives have a fitted effect of over 55% in size; growth read by luminescence after 48 h
MARV entry inh – inhibitors of Marburg virus binding or cell entry. Marburg virus pseudotyped entry inhibition, cell reporter; control for the full effect not named in the record; about a third of the inactives were read at about 46 µM. Potency, µM (doses to about 37.8 µM), inactives show at the highest dose activity change, negative = inhibition, actives largely listed as inhibitors. 300,000 tested, 1.8% active. AID 540276; active = well fitted inhibition curve with a large enough effect; inconclusive = small, poorly fitted or top-dose-only effect, or effect the other way; inactive = flat fitted curve, though single readings scatter; tested in HEK293 cells; about a fifth of its hits are not listed in these tables; note: % is set by controls: 0 for no effect and ±100 for the full control effect; luciferase read-out
Cruzain inh Det – blocks cruzain activity in presence of Triton detergent. P25779. purified cruzain, Z-FR-AMC fluorescence, 0.01% Triton. Potency, µM, inactives show max response, negative = inhibition, actives largely listed as inhibitors. 200,000 tested, 0.43% active. AID 1478;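 note: plate controls were neutral wells for no effect and buffer without enzyme for full effect; nearly all actives have a fitted effect of over 40% in size; top concentration of the series not given in the record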
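Steps: dispense cruzain (1.5 nM final) in acetate buffer pH 5.5 with DTT and 0.01% Triton X-100; pin-transfer compounds; incubate 15 min RT; add Z-FR-AMC (2 uM final); read fluorescence every 30 s, using the 60 s intensity change.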
Numbers without * were called inactive; & = joins results of further samples; [ ] = dose if it differs, or a comment. Unless noted, calls come from the whole dose curve; as a rule, active = well fitted curve in the direction sought with a large enough effect; inconclusive = small, poorly fitted or top-dose-only effect, or another doubt; inactive = no such curve, though single readings can be large; an effect the other way counts as inactive or inconclusive. Potency is the fitted concentration of half-maximal effect.

Screening Cc1ccc(C)c2sc(NC(=O)c3ccc(S(=O)(=O)N4CCC(C)CC4)cc3)nc12 returned Cruzain inh noDet inconclusive, StopGo reporter 0%, LASV entry inh -18%[46.1 µM] and Cruzain inh Det -0.7%.
For CCOC(=O)c1noc2ncn(CC(=O)Nc3ccccc3OC)c(=O)c12 the results were Cruzain inh noDet inconclusive, StopGo reporter -10%, LASV entry inh -1%[46.1 µM] and Cruzain inh Det -0.5%.
Cc1ccc(OCC(=O)NC(=S)Nc2cccc(NC(=O)c3ccccc3Cl)c2)cc1 was read as Cruzain inh noDet inconclusive, StopGo reporter 6%, NS1 function inh 5%, RE007 growth inh 1%, LASV entry inh -14%, SARS PLP yeast -21%, MARV entry inh inconclusive and Cruzain inh Det -13%.
Screening O=C(COc1ccccc1[N+](=O)[O-])Nc1ccc2c(c1)OCO2 returned StopGo reporter 64%[activator], NS1 function inh 0%, RE007 growth inh -4% and SARS PLP yeast -2%.
For Cc1nn(CC(=O)O)c(=O)c2cc3cc(F)ccc3n12 the results were Cruzain inh noDet -13%, StopGo reporter -10%, MARV entry inh -3%[46.1 µM] and Cruzain inh Det -0.6%.
For COc1cc(CN2CCC(Oc3cc(C(=O)NC4CC4)ccc3OC)CC2)cc(OC)c1 the results were StopGo reporter 4%, NS1 function inh -1%, RE007 growth inh 0% and SARS PLP yeast 2%.
For CCOc1ccccc1N(CC(=O)Nc1ccccc1C(=O)N1CCOCC1)S(C)(=O)=O the results were StopGo reporter -5%, NS1 function inh 7%, RE007 growth inh -15%, LASV entry inh -10%, SARS PLP yeast 2% and MARV entry inh 24%.
Screening Cc1ccc(N/N=C/c2c(C)c(C#N)c(=O)n(C)c2O)cc1C returned StopGo reporter 0%, NS1 function inh 4%, RE007 growth inh -7%, LASV entry inh 11%, SARS PLP yeast 0% and MARV entry inh 9%[46.1 µM].
Screening CC(C)c1ccc(S(=O)(=O)N2CCN(C(=O)CN3C(=O)c4ccccc4C3=O)CC2)cc1 returned StopGo reporter -12%, RE007 growth inh 21%, LASV entry inh 4%[46.1 µM], SARS PLP yeast 16% and MARV entry inh 6%[46.1 µM].
For COC(=O)[C@@H]1C[C@@]2(O)[C@@H](O)[C@@H](O)[C@@H](O)C[C@H]2N1CC1CCCCC1 the results were Cruzain inh noDet -4%, StopGo reporter 3%, NS1 function inh 1%, RE007 growth inh 4%, SARS PLP yeast 1% and Cruzain inh Det -2.2%.
CCN1CCN(c2cc(C)c3cc(NC(=O)CCC(=O)Nc4ccc(OC)c(OC)c4)ccc3n2)CC1 was read as StopGo reporter -15%, NS1 function inh 2%, RE007 growth inh -5% and SARS PLP yeast 2%.
N#C/C(=C\c1cccc(F)c1)c1nc(-c2cc3ccccc3oc2=O)cs1 was read as Cruzain inh noDet -1%, StopGo reporter -4%, LASV entry inh 6%[46.1 µM] and Cruzain inh Det -2.6%.
For CO/C=C\C=C/c1nnn(-c2ccc(Cl)cc2)n1 the results were Cruzain inh noDet inconclusive, StopGo reporter 6%, NS1 function inh -45%, RE007 growth inh inconclusive, LASV entry inh -10%[46.1 µM], SARS PLP yeast -77%, MARV entry inh inconclusive and Cruzain inh Det -13%.
`O=C(Nc1cc(Cl)ccc1Cl)N1CCN(C(=O)Nc2cc(Cl)ccc2Cl)CC1` gave StopGo reporter -22%, RE007 growth inh -4%, LASV entry inh 9%[46.1 µM] and MARV entry inh 0%.
O=S(=O)(c1ccc(Br)cc1)c1cnc2ccccc2n1 was read as StopGo reporter inconclusive, RE007 growth inh -4%, LASV entry inh inconclusive, SARS PLP yeast -1% and MARV entry inh inconclusive.
Screening Cc1c(C)c2c(OCC(=O)NCc3cccnc3)cc3c(c2oc1=O)CCC(C)(C)O3 returned StopGo reporter -19%, NS1 function inh 5%, RE007 growth inh -3% and SARS PLP yeast -1%.
CCC(O)CNc1nc(SC)nc2sc3c(c12)CCN(C)C3 (centres undefined) was read as StopGo reporter 0%, NS1 function inh inconclusive, RE007 growth inh -4%, LASV entry inh 17%, SARS PLP yeast 2% and MARV entry inh -1%.
`Cc1ccc(C(=O)O)cc1N1CCCC1=O` gave StopGo reporter 0%, NS1 function inh 7%, RE007 growth inh 0%, LASV entry inh 1%, SARS PLP yeast 1% and MARV entry inh -14%[14.2 µM].
For NC(=O)c1ccccc1NC(=O)N1CCOCC1 the results were StopGo reporter 0%, NS1 function inh 0%, RE007 growth inh 3%, LASV entry inh inconclusive, SARS PLP yeast 2% and MARV entry inh 3%.
Screening CN(C(=O)COC(=O)c1cccc(NS(=O)(=O)c2ccc(F)c(F)c2)c1)C1CCS(=O)(=O)C1 (centres undefined) returned StopGo reporter 2%, NS1 function inh 11%, RE007 growth inh -16% and SARS PLP yeast 4%.
`COc1ccc(Cl)cc1N1C(=O)/C(=C\c2sccc2C)N=C1SCC(=O)NC1CC1` gave Cruzain inh noDet inconclusive, StopGo reporter inconclusive, NS1 function inh 14%, RE007 growth inh -1%, LASV entry inh -20%, SARS PLP yeast 8%, MARV entry inh 0% and Cruzain inh Det -7.5%.
Screening Cc1nnc(SCC(=O)N2CC(=O)Nc3ccccc32)n1-c1ccccc1 returned Cruzain inh noDet -4%, StopGo reporter 4%, NS1 function inh -2%, RE007 growth inh 0%, LASV entry inh 0%, SARS PLP yeast inconclusive, MARV entry inh inconclusive and Cruzain inh Det 1.7%.
Screening CN(Cc1ccccc1)C(=O)C1CCN(S(C)(=O)=O)CC1 returned StopGo reporter 12%, NS1 function inh -3%, RE007 growth inh 3%, LASV entry inh 0%[46.1 µM], SARS PLP yeast 0% and MARV entry inh 8%[46.1 µM].
`COC(=O)c1cccc(CSC(=S)N2CCCC2)c1` gave StopGo reporter 10%, NS1 function inh 6%, RE007 growth inh -2% and SARS PLP yeast -3%.
For Cc1ccc(SCC(=O)N/N=C/c2ccco2)cc1 the results were StopGo reporter 7%, NS1 function inh -18%, RE007 growth inh 5%, LASV entry inh inconclusive, SARS PLP yeast -9% and MARV entry inh 4%.
CCOc1ccccc1-n1c(=S)sc2c(=O)n(-c3ccccc3)c(=S)[nH]c21 was read as StopGo reporter -7%, RE007 growth inh -2%, LASV entry inh -23%[46.1 µM], SARS PLP yeast 2% and MARV entry inh inconclusive.
O=C(CCC1CCCC1)N1CCN(S(=O)(=O)Cc2ccccc2)CC1 was read as Cruzain inh noDet 7%, StopGo reporter inconclusive, NS1 function inh -16%, RE007 growth inh 1%, LASV entry inh -20%, SARS PLP yeast 5%, MARV entry inh inconclusive and Cruzain inh Det -4.1%.
CCCc1cc(=O)[nH]c2nnc(SCC(=O)NC3CCCCC3)n12 was read as StopGo reporter -19%, RE007 growth inh -7%, LASV entry inh 4%, SARS PLP yeast -6% and MARV entry inh 19%.
For CC1CCN(C(=O)c2ccc3c(=O)n4c(nc3c2)CCCCC4)CC1 the results were StopGo reporter 28%, NS1 function inh -10%, RE007 growth inh 4%, LASV entry inh 1%[46.1 µM], SARS PLP yeast 1% and MARV entry inh 4%[46.1 µM].
`Cc1cc(C)nc(Nc2n[nH]c(-c3ccccc3Cl)n2)n1` gave StopGo reporter 28%, NS1 function inh -1%, RE007 growth inh -3% and SARS PLP yeast 0%.
For CC1(CC(=O)O)C(=O)N=C2C=CC=CN21 (centres undefined) the results were Cruzain inh noDet -4%, StopGo reporter 3%, NS1 function inh 3%, RE007 growth inh 4%, LASV entry inh -5%, SARS PLP yeast -9%, MARV entry inh 0% and Cruzain inh Det 0.3%.
`Cc1c(Cl)cccc1NC(=O)CN1C(=O)CCn2nc(-c3cccn3C)cc21` gave Cruzain inh noDet inconclusive, StopGo reporter -7%, LASV entry inh -9%[46.1 µM] and Cruzain inh Det -2.8%.
For O=C(c1cc(-c2ccccc2)on1)N1CCCC1 the results were Cruzain inh noDet 0%, NS1 function inh 5%, RE007 growth inh -5%, LASV entry inh inconclusive, SARS PLP yeast -1%, MARV entry inh inconclusive and Cruzain inh Det -1.1%.
For CCCOc1ccc(NC(=O)CC2C(=O)N(c3ccccc3)C(=O)N2CCC(C)C)cc1 (centres undefined) the results were Cruzain inh noDet 9%, StopGo reporter -6%, LASV entry inh 3%[46.1 µM] and Cruzain inh Det -7.1%.
For COC(=O)c1cn(NC(=O)c2cccc(N(C)C)c2)c(=O)c2ccccc12 the results were Cruzain inh noDet -9%, StopGo reporter 5%, NS1 function inh -8%, RE007 growth inh -3%, LASV entry inh -1%, SARS PLP yeast -12%, MARV entry inh -27% and Cruzain inh Det 0.1%.
Screening N#CC1=C2SCN(c3ccccc3)CN2C(=O)CC1c1cccs1 (centres undefined) returned Cruzain inh noDet inconclusive, StopGo reporter -13%, NS1 function inh -45%, RE007 growth inh -13%, LASV entry inh -3%, SARS PLP yeast 2%, MARV entry inh 1% and Cruzain inh Det -16%.
CCC(Oc1ccccc1)C(=O)Nc1cc(-c2ccccc2F)nn1-c1ccccc1 (centres undefined) was read as Cruzain inh noDet -11%, StopGo reporter inconclusive, LASV entry inh 0%[46.1 µM] and Cruzain inh Det 2.5%.
O=S(=O)(Nc1ccc2oc3c(c2c1)CCCC3)c1cc(Cl)ccc1Cl was read as Cruzain inh noDet 32µM*, StopGo reporter 24%, LASV entry inh -2%[46.1 µM] and Cruzain inh Det -3.1%.
For Cc1csc(Nc2ccc(Cl)cc2)[n+]1-c1ccc(Cl)cc1 the results were StopGo reporter inconclusive, NS1 function inh -4%, RE007 growth inh inconclusive, LASV entry inh -5%, SARS PLP yeast -14% and MARV entry inh inconclusive.
For CCOC(=O)C1=C(CN2CCCCC2)NC(=O)NC1c1ccc(C)cc1 (centres undefined) the results were Cruzain inh noDet -6%, StopGo reporter -17%, LASV entry inh -1%[46.1 µM], MARV entry inh -15%[46.1 µM] and Cruzain inh Det 0.3%.
For O=c1cc(-c2ccccc2Cl)oc2ccc([N+](=O)[O-])c(O)c12 the results were Cruzain inh noDet inconclusive, StopGo reporter -9%, NS1 function inh -20%, RE007 growth inh -7%, LASV entry inh 4%, SARS PLP yeast -43%, MARV entry inh 18% and Cruzain inh Det -0.8%&-3.8%.

Outcome played no part in choosing rows; 4.7% or so of the library scored in one or more.
